Bioassay records from PubChem.
Sa growth 42C = blocks Staphylococcus aureus growth; S. aureus RN4220 growth, OD600, 20 h, 42 °C; active compounds read low; 170,000 compounds, 0.53% hits; relative growth, % (no concentration beside the values);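 active = growth at 42 °C up to 50% and 20 or more points under that at 30 °C, or under 10% at both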;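 also: 300 nL library stock went into each well; scaled to the means of positive and negative controls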
HCMV NEC inh = disrupts HCMV UL50-UL53 complex binding; inhibition, % (concentration not given with the values); 190,000 compounds, 0.15% hits; AID 1918969; HTRF UL50-UL53 interaction, normalized percent inhibition;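 active = both replicates at 50% or more, plus weaker picks with an unusually low signal ratio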;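 also: stock transfer was 100 nL into about 20 µL; 0% = negative control wells and 100% = wells with untagged competitor protein; inactives centre near -12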
GIV Gai3 FP = inhibitors of GIV GBA-motif binding to rat Galpha-i3; Galpha-i3/FITC-GIV peptide fluorescence polarization, 90 min; active compounds read low; scaled: aluminum fluoride 0%, vehicle 100%; percent of control (FP), % (no concentration beside the values); P08753; 210,000 compounds, 0.42% hits;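 active = replicate mean at 85% of control or lower, very high polarization wells dropped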;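 also: wells of about 15 µL received 100 nL stock; the first replicate is given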
Target sequence (P08753 whole entry, looked up): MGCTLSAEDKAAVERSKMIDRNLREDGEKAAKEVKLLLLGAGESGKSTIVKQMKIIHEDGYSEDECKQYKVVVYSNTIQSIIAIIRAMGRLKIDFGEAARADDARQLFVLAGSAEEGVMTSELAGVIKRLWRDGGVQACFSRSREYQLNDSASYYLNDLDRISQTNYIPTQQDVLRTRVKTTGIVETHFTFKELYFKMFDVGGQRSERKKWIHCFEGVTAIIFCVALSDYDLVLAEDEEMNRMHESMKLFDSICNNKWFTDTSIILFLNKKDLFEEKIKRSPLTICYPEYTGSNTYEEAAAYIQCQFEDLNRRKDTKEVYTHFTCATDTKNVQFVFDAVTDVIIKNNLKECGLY
Sa growth 42C second temp = second read-out of Sa growth 42C, no call of its own (marks repeat the call); relative growth, %; measured here: growth at 30 °C;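 optical density after 20 h as mean of two plates; 100% = untreated growth and lower means inhibition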
The depositor's hits bear a star; x = not tested or not shown; & = joins results of further samples.

no.	SMILES	Sa growth 42C	Sa growth 42C second temp	HCMV NEC inh	GIV Gai3 FP
1	Cc1ccc(C)n1-c1cccc(S(=O)(=O)N2CCOCC2)c1	94	94	-1	x
2	O=C(COc1ccccc1)Nc1ccc(C(=O)c2ccccc2)cc1	99	80	16	x
3	O=C(c1cc2occc2c(Nc2ccc(Cl)cc2)n1)N1CCCC1	x	x	2	108
4	NC(=O)CSc1nnc(-c2ccco2)n1Cc1ccco1	111	105	2	104
5	Cc1ccc(/C=C/c2onc(C)c2S(=O)(=O)N2CCC(C(=O)N(CCC(C)C)Cc3ccco3)CC2)cc1	112	100	x	97
6	c1ccc(N=c2oc3ccccc3cc2-c2nc3ccccc3[nH]2)cc1	100	70	x	114
7	CCOc1ccc(NC(=O)C2Sc3nnc(-c4ccccc4)n3NC23CCCCC3)cc1 (stereo not given)	x	x	20	105
8	Cc1ccc2cc3c(N)nn(C(=O)c4cccc(F)c4)c3nc2c1	111	89	-30	109
9	O=C(c1ccc(S(=O)(=O)N2CCOCC2)cc1)N1CCn2c1nc1ccccc12	86	95	-36	x
10	Fc1cccc(Cl)c1-c1[nH]c(=S)nc2[nH]c(=S)[nH]c(=S)c12	90	82	-5	x
11	O=C(NCc1nc2ccccc2n1Cc1ccccc1)c1ccccc1	109	88	-25	x
12	N#C/C(=C\c1ccccc1[N+](=O)[O-])c1nc(-c2cc3cc(Br)ccc3oc2=O)cs1	x	x	-14	103
13	O=C(COC(=O)c1cc(-c2ccco2)nc2ccccc12)Nc1ccc(F)c(F)c1F	91	80	-15	x
14	Cc1ccc(Cn2c(CNS(=O)(=O)c3cccc([N+](=O)[O-])c3)nc3cccnc32)cc1	97	98	x	115
15	CC1(C)CC(=O)C2=C(C1)Nc1ccccc1N(C(=O)Cc1ccc(Cl)cc1)C2c1cccnc1 (stereo not given)	x	x	-9	110
16	COC(=O)CC(=O)CSc1nc2cc(C(=O)NC(C)C)ccc2c(=O)n1CCc1ccccc1	81	78	x	108
17	CC1=C(C(=O)OC2CCCCCC2)C(c2ccc(OCc3ccccc3)cc2)NC(=O)N1 (stereo not given)	x	x	-12	100
18	CCc1nn(CCCC(=O)N2CCN(c3cccc(OC)c3)CC2)c(=O)c2cc3occc3n12	95	86	2	105
19	Nc1nonc1-n1nnc2c1CCCC2=O	92	85	-28	107
20	Cc1cccc(N2C(=O)NC(=O)/C(=C\c3cn(CC(=O)N4CCOCC4)c4ccccc34)C2=O)c1	x	x	7	110
21	Cn1c(-c2ncc(C(F)(F)F)cc2Cl)n[nH]c1=S	103	103	-6	98
22	Cn1nc(C(=O)NCc2ccc(F)cc2)c2c1-c1cc(F)ccc1SC2	x	x	-30	107
23	O=C(c1ccccc1)c1cccc2c1NCC2	110	72	-11	81*
24	CN(C)S(=O)(=O)N1CCC(N2CCN(Cc3ccc(F)cc3)C(=O)C2=O)CC1	108	98	x	108
25	O=C(Nc1nccs1)C1CCN(S(=O)(=O)c2ccccc2)CC1	117	83	8	104
26	COC(=O)c1cnc(Sc2ccc(Cl)cc2)nc1C(F)(F)F	92	89	-16	102
27	CNS(=O)(=O)c1cn(CC(=O)N2CCN(c3ccccc3OC)CC2)cc1S(=O)(=O)NC	84	93	x	100
28	Clc1ccc(CNc2ccc(N3CCOCC3)cc2)cc1Cl	87	104	-6	108
29	Cc1nn(C(=O)c2cccnc2)c(-c2ccccc2)c1Sc1ccccc1	111	103	x	98
30	CCN1CCN(C(=O)C2CCC(=O)N(c3cc(OC)c(OC)c(OC)c3)C2c2ccc(OC)cc2)CC1 (stereo not given)	100	86	-6	105

Along the list, quoted from above.
Entries 18 to 29 in GIV Gai3 FP, in turn: 105, 107, 110, 98, 107, 81*, 108, 104, 102, 100, 108, 98
Entries 18 to 29 in Sa growth 42C second temp, in turn: 86, 85, x, 103, x, 72, 98, 83, 89, 93, 104, 103

4 compounds from above, showing only Sa growth 42C:
| cpd | Compound | Sa growth 42C |
| --- | --- | --- |
| 8 | Cc1ccc2cc3c(N)nn(C(=O)c4cccc(F)c4)c3nc2c1 | 111 |
| 9 | O=C(c1ccc(S(=O)(=O)N2CCOCC2)cc1)N1CCn2c1nc1ccccc12 | 86 |
| 10 | Fc1cccc(Cl)c1-c1[nH]c(=S)nc2[nH]c(=S)[nH]c(=S)c12 | 90 |
| 11 | O=C(NCc1nc2ccccc2n1Cc1ccccc1)c1ccccc1 | 109 |

Next part:
no.	SMILES	Sa growth 42C	Sa growth 42C second temp	HCMV NEC inh	GIV Gai3 FP
31	N=C(N)SCCN1C(=O)c2ccccc2C1=O	91	87	-58	107
32	COc1ccc2cc3c(nc2c1)N(S(=O)(=O)c1cc(C)ccc1OC)CC3	x	x	-7	106
33	O=C(NCc1ccccc1)c1cnc(N2CCOCC2)nc1	90	85	-26&-31	104&100
34	COc1ccccc1N1CCN(C(=O)C2CCN(S(=O)(=O)c3c(C)noc3/C=C/c3ccc(C)cc3)CC2)CC1	97	82	x	101
35	COc1ccccc1C1CCN(C(=O)C2CCCCC2)CC1	90	79	-17	108
36	COCC(C)NC(=O)c1ccc2c(c1)OCO2 (stereo not given)	106	99	-24	101
37	CCN(CC(=O)Nc1ccc(OC)cc1)C1CCCCC1	94	90	-22	x
38	Cc1nc(S(=O)(=O)N2CCC(C(=O)N3CCN(c4cccc(Cl)c4)CC3)CC2)cn1C	x	x	-12	99
39	COc1ccc(CNC(=O)C(C)Nc2cc(OC)c(Cl)cc2OC)cc1 (stereo not given)	96	95	15	x
40	CC1(C)CC(NCc2ccco2)CCO1 (stereo not given)	85	80	-4	x
41	CCOCN(C(=O)Cn1c(C(C)O)nc2ccccc21)c1c(C)cccc1CC (stereo not given)	95	90	-21	100
42	Cc1cccc(NC(=O)CSc2ncc3c(n2)-c2cc(Cl)ccc2N(C)S3(=O)=O)c1C	111	91	x	100
43	Cc1ccc(C)c(N2CCN(C(c3ccc(F)cc3)c3nnc(-c4ccccc4)o3)CC2)c1 (stereo not given)	86	90	-10	101
44	Cc1ccc(CSc2nc3cc(C(=O)NC4CCCC4)ccc3c(=O)n2Cc2ccccc2)cc1	105	88	x	99
45	Cc1cc2ccccc2c(=O)n1CC(=O)NCC(=O)N(C)C1CCCCC1	108	89	x	97
46	COC(=O)c1c(C)oc2cc(Br)c(OCC(=O)c3ccc(OC)cc3)cc12	x	x	12	105
47	CCOC(=O)N1CCC2(CC1)N=C(c1ccccc1O)CC(c1ccc(SC)cc1)N2 (stereo not given)	x	x	-15	100
48	Clc1ccc(Oc2ccc3nnc(-c4ccccc4)n3n2)c(Cl)c1	116	74	-5	100
49	CCc1cc(C(=O)OC)c(NC(=O)CN2CC(C)CC(C)C2)s1 (stereo not given)	107	93	-35	111
50	OC[C@H]1O[C@@H](O[C@@H]2[C@@H](CO)O[C@](O)(CO)[C@H]2O)[C@H](O)[C@@H](O)[C@H]1O	86	88	-68	x
51	CN(C)/C=C/C(=O)C(c1ccccc1)c1ccccc1	105	94	-14	108
52	COc1ccc2c(c1)sc1ncc(C(=O)NCc3ccccc3F)c(=O)n12	102	83	-22	96
53	COC(=O)CC1CN=C(N2CCOCC2)NC1=O (stereo not given)	x	x	3	103
54	Cc1cc(NC(=O)CCc2ccccc2)no1	94	82	-8	100
55	CC(C)(C)C(=O)Nc1ccc2nc(N3CCN(C4CCCCC4)CC3)cc(C(=O)O)c2c1	x	x	-11	103
56	CCOC(=O)c1nnc(Cc2ccc(F)cc2)o1	106	93	x	100
57	O=C(Cc1coc2cc3c(cc12)CCC3)OC1CCCCC1=O (stereo not given)	113	92	-12	x
58	COC(=O)c1cnc(NCc2cccnc2)c2ccccc12	107	105	11	110
59	O=C(CSc1nnc(SCC(=O)N2CCCC2)s1)N1CCCC1	87	90	-4	112
60	NC(=S)COc1cc(Cl)cc(Cl)c1	93	85	-11	102
61	Cc1c(C(=O)Nc2ccccc2Cl)sc2nc3n(c(=O)c12)N=C(c1cc(O)ccc1O)CS3	109	66	x	101
62	Cc1ccc(CN2CCN(c3ncccn3)CC2)c(C)c1	114	103	9	97
63	CCn1c(C(=O)N(C)c2ccc(Br)cc2)cc2c(=O)oc3ccccc3c21	x	x	13	109
64	CC(=O)Oc1cccc(N2C(=O)C3C(C2=O)C2(C)C=CC3(C)O2)c1 (stereo not given)	x	x	-11	100
65	CCn1c(SCCNS(=O)(=O)c2ccc(C)cc2)nnc1-c1ccc(Cl)cc1	111	107	18	x
66	CC(Oc1ccccc1)C(=O)Nc1ccccc1C(=O)OCc1cc(=O)n2nc(C3CC3)sc2n1 (stereo not given)	94	93	x	111
67	NC(=O)CSc1nc2ccccc2n1CCOc1ccc(Cl)cc1	x	x	-17	102
68	CCCC(=O)Nc1cc(C)c(O)c(-c2nc3cc(Cl)ccc3o2)c1	110	76	x	105
69	COc1ccc(CNC(=O)c2ccc3nc(CCc4ccccc4)oc3c2)cc1	90	93	x	97
70	Cc1nc(Nc2ccc(NC(=O)Nc3ccc4c(c3)OCCO4)cc2)cc(N2CCCC2)n1	x	x	-18	101
71	O=S(=O)(NCCS(=O)(=O)N1CCN(c2ccccc2)CC1)c1ccccc1	99	91	x	105
72	NC(=S)N1CCCCC1	106	86	-26	x
73	Cc1ccc(C(=O)Nc2ccc(S(=O)(=O)N(Cc3ccccc3)c3ccccc3)cc2)cc1	110	89	-18	97
74	COc1ccc(NC(=O)CSc2c3c(nc4ccc(Cl)cc24)CCCC3)cc1Cl	106	88	-28	104
75	O=C(Nc1ccc2c(c1)OCCO2)Nc1cc(NC(=O)c2ccccc2)ccc1N1CCCC1	x	x	-25	102
76	Cc1nc(S(=O)(=O)N2CCC(C(=O)N3CCN(c4ccc(Cl)cc4)CC3)CC2)cn1C	x	x	10	111
77	O=c1cc(-c2ccccc2)n2c(SCc3cccc([N+](=O)[O-])c3)nnc2[nH]1	106	93	x	107
78	Cc1ccc(-n2c(=O)[nH]c3c(C(N)=O)nc(-c4cccnc4)nc32)cc1	x	x	-9	101
79	CC1CC(=O)Nc2cc(S(=O)(=O)N3CCC(CN4CCc5ccccc5C4)CC3)ccc2S1 (stereo not given)	x	x	9	110
80	Cc1ccc2nc(COC(=O)/C(C#N)=C/c3cc(C)n(CC(C)C)c3C)cc(=O)n2c1	103	82	-35	x
81	COc1ccccc1CNC(=O)C1=Cc2ccc(C)cc2OC=C1	x	x	-1	101
82	CC1COC(c2cccn2Cc2ccccc2Br)=N1 (stereo not given)	x	x	-35	102
83	CN1CCN(CCCNC(=O)Cn2c(-c3cccs3)cc3ccccc32)CC1	108	98	x	104
84	CCOC(=O)c1ccc2ncc(C(=O)OCC)c(NCCN(C)C)c2c1	108	102	5	101
85	COC(=O)c1c(N)sc2c1CCN(C)C2	86	87	-12	x
86	NC(=O)COC(=O)c1ccccc1OCc1ccccc1	121	81	-23	x
87	CCCN(CCC)CN1C(=S)SC2=NC(=O)CCCN21	109	79	x	98
88	O=C(CSC1=Nc2ccccc2C2CC=NN12)NCc1ccco1 (stereo not given)	74	87	-11	x
89	O=C(O)c1nccnc1C(=O)Nc1cccc2c1CCCC2	95	86	-15	104
90	NC(=O)c1ccc(NC(=O)COC(=O)C2CC(=O)N(Cc3ccccc3)C2)cc1 (stereo not given)	103	91	-19	x

Further structures.
no.	SMILES	Sa growth 42C	Sa growth 42C second temp	HCMV NEC inh	GIV Gai3 FP
91	ON=C1CCCCCCCCCCC1	91	96	-26	x
92	C=CCn1c(=O)c2ccc(C(=O)NCC(C)C)cc2n2c(=O)n(CC(=O)NC(C)CC)nc12 (stereo not given)	x	x	-3	106
93	CC(C)OC(=O)COc1cc(O)c2c(=O)cc(-c3ccccc3)oc2c1	x	x	-2	97
94	CCOc1ccc(NC(=O)CN(C)C(=O)C2CCCC2)cc1OCC	103	97	-4	x
95	O=C1CCC(c2ccccc2)N1C(=O)c1ccc(Cl)cc1 (stereo not given)	120	86	-14	103
96	CN1CCN(/N=C/c2nc(-c3ccc(Cl)cc3)n3ccccc23)CC1	98	99	-31	101
97	Cc1nc2cc(-c3cccc(F)c3)nn2c(C)c1CCC(=O)Nc1ccc2c(c1)OCCO2	99	95	x	101
98	Cc1nc2ccccc2nc1OCC(=O)NCC(F)(F)F	89	93	-39	x
99	COc1cccc(-c2cc(C(=O)Nc3ccc4c(c3)OCO4)no2)c1	98	87	-24	103
100	Cc1ccc(C)c(CN2C(=O)C3(c4ccccc42)N(c2cccc(C(F)(F)F)c2)C(=O)CS3(=O)=O)c1 (stereo not given)	93	94	0	107
101	c1ccc(-c2nc3nonc3c3nc4ccccc4n23)cc1	86	82	-27	101
102	Cc1noc(C)c1CSc1ncccc1C(=O)Nc1ccccc1C(=O)NC1CCCC1	84	94	-19	x
103	CC(C)c1ccccc1NC(=O)CC1(CC(=O)O)CCCC1	135	95	-18	x
104	CCSc1nnc2c(n1)OC(c1c(OC)ccc3ccccc13)Nc1ccccc1-2 (stereo not given)	x	x	-38	-4.5*

As a working copy, some entries already given.
no.	SMILES	Sa growth 42C	Sa growth 42C second temp	HCMV NEC inh	GIV Gai3 FP
91	ON=C1CCCCCCCCCCC1	91	96	-26	x
92	C=CCn1c(=O)c2ccc(C(=O)NCC(C)C)cc2n2c(=O)n(CC(=O)NC(C)CC)nc12 (stereo not given)	x	x	-3	106

Exported with one line to a screen: part of the list above
[100] Cc1ccc(C)c(CN2C(=O)C3(c4ccccc42)N(c2cccc(C(F)(F)F)c2)C(=O)CS3(=O)=O)c1 (stereo not given)
[91] ON=C1CCCCCCCCCCC1

compound no. | 100 | 91
Sa growth 42C | 93 | 91
Sa growth 42C second temp | 94 | 96
HCMV NEC inh | 0 | -26
GIV Gai3 FP | 107 | x
